# Compound activity: PubChem BioAssay, National Center for Advancing Translational Sciences (NCATS)
# NS1 function inh: qHTS Assay for Inhibitors of Influenza NS1 Protein Function; S. cerevisiae slowed by influenza A NS1, growth recovery by OD600; Potency, µM (series often up to 46.1 µM), for inactives: top-dose activity, positive = more growth; 270,000 compounds, 0.4% hits; AID 2326, 2010; active means well fitted rising curve with a large enough effect; inconclusive means small, poorly fitted or top-dose-only effect; inactive means no such curve, though single readings can be large or run the other way; also: nearly all actives have a fitted effect of over 50% in size
#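 A cell-based growth assay was used: compounds that relieve NS1-induced slow growth of budding yeast raise OD600. Assay medium was yeast nitrogen base with ammonium sulphate and -URA supplement, pH 6.0, with 2% galactose.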
# MARV entry inh: qHTS for inhibitors of binding or entry into cells for Marburg Virus; Marburg virus pseudotyped entry inhibition, cell reporter; control for the full effect not named in the record; about a third of the inactives were read at about 46 µM; Potency, µM (series often up to 37.8 µM), inactives show at the top dose activity change, negative = inhibition, actives largely listed as inhibitors; 300,000 compounds, 1.8% hits; active = well fitted inhibition curve with a large enough effect; inconclusive = small, poorly fitted or top-dose-only effect, or effect the other way; inactive = flat fitted curve, though single readings scatter; tested in HEK293 cells; about a fifth of its hits are not listed in these tables; also: % is scaled to controls: 0 for no effect and ±100 for the full control effect; luciferase read-out
# Lassa entry inh: qHTS for Inhibitors of binding or entry into cells for Lassa Virus; Lassa virus pseudotype entry inhibition, cell reporter; control for the full effect not named in the record; Potency, µM (top dose mostly 37.9 µM), for the others: at the top dose activity change, negative = inhibition, hits mostly inhibitors; 300,000 compounds, 1.2% hits; AID 540256, 2011; active means well fitted inhibition curve with a large enough effect; inconclusive means small, poorly fitted or top-dose-only effect, or effect the other way; inactive means flat fitted curve, though single readings scatter; tested in HEK293 cells; also: % is scaled to controls: 0 for no effect and ±100 for the full control effect; nearly all actives have a fitted effect of over 50% in size; luciferase read-out
# Cruzain inh noDet: qHTS Assay for Promiscuous and Specific Inhibitors of Cruzain (without detergent). purified cruzain, Z-FR-AMC fluorescence, no detergent. Potency, µM, without a hit: max response, negative = inhibition, hits mostly inhibitors. 200,000 compounds, 2.3% hits;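 also: plate controls were enzyme without inhibitor for no effect and buffer without enzyme for full effect; nearly all actives have a fitted effect of over 40% in size; top concentration of the series not given in the record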
# Target sequence (P25779 123-467 limits assumed): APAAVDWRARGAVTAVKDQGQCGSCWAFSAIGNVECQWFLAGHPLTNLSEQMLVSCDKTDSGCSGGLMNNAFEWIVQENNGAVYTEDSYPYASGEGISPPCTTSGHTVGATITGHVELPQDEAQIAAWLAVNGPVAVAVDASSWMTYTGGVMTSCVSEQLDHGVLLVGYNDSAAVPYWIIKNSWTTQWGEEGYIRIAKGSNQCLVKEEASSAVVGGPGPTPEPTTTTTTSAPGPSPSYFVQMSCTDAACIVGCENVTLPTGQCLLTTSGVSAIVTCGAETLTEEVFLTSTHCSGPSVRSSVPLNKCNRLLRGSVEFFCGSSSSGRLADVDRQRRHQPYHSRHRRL
#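 Detergent-free condition (0.00005% Triton X-100) in acetate buffer pH 5.5 with DTT. 1.5 nM enzyme and compound were pre-mixed 15 min, then 2 uM Z-FR-AMC substrate added; reaction progress from fluorescence change between first and third reads (60 s).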
# SARS PLP yeast: qHTS of Yeast-based Assay for SARS-CoV PLP; AID 485353, 2010; Potency, µM (titrated, usually from 32.9 µM), inactives show at the top dose activity, positive = growth rescue; S. cerevisiae expressing SARS-CoV PLpro, growth rescue; control for the full effect not named in the record; 330,000 compounds, 0.19% hits; active means well fitted rising curve with a large enough effect; inconclusive means small, poorly fitted or top-dose-only effect; inactive means no such curve, though single readings can be large or run the other way; also: 0% is about no effect; nearly all actives have a fitted effect of over 55% in size; growth read by luminescence after 48 h
# 2A StopGo: High Throughput Screening for Foot and Mouth Disease Virus Antivirals | human cells with a luciferase reporter of 2A StopGo recoding; control for the full effect not named in the record | Potency, µM (doses to about 57.9 µM), for inactives: at the top dose signal change, negative = less light | 410,000 compounds, 1.2% hits | AID 1159524, 2015; active = well fitted falling curve with a large enough effect; inconclusive = small, poorly fitted or top-dose-only effect; inactive = no such curve, though single readings can be large or run the other way; tested in HEK293T cells; also: % is scaled to controls: 0 for no effect and ±100 for the full control effect; nearly all actives have a fitted effect of over 45% in size; luciferase light after 4 h
# Cruzain inh Det: qHTS Assay for Promiscuous and Specific Inhibitors of Cruzain (with detergent) | 200,000 compounds, 0.43% hits | Potency, µM, for the others: max response, negative = inhibition, usual class: inhibitors | Cruzipain (Trypanosoma cruzi), P25779 | purified cruzain, Z-FR-AMC fluorescence, 0.01% Triton;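 also: plate controls were neutral wells for no effect and buffer without enzyme for full effect; nearly all actives have a fitted effect of over 40% in size; top concentration of the series not given in the record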
#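 In this qHTS format, compounds are incubated with 1.5 nM cruzain for 15 min at room temperature before 2 uM Z-FR-AMC is added. Release of AMC is followed at 360/450 nm, and progress is taken as the 60 s fluorescence difference.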
# RE007 growth inh: qHTS Assay for Inhibitors of the HIV-1 protein Vpr. S. pombe RE007 Vpr strain, BacTiter-Glo ATP luminescence, 24 h; control for the full effect not named in the record. Potency, µM (doses to about 92.2 µM), for inactives: at the top dose activity change, negative = less growth. 360,000 compounds, 0.21% hits. AID 651644, 2012; active = well fitted falling curve with a large enough effect; inconclusive = small, poorly fitted or top-dose-only effect; inactive = no such curve, though single readings can be large or run the other way;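 also: % is scaled to controls: 0 for no effect and ±100 for the full control effect; nearly all actives have a fitted effect of over 50% in size; the assay follows cell death caused by Vpr and the record does not say whether a fall means rescue or toxicity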
#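 Fission yeast strain RE007, carrying one chromosomally integrated HIV-1 vpr copy, was seeded at OD 0.01 in PMG+AL medium with 23 nL pinned compound. After 24 h at 30 °C and 99% humidity, viability was read by BacTiter-Glo luminescence.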
# Active calls of the source: *; ? = inconclusive; . = no result given; & = joins results of further samples; [ ] = remark or other dose. Unless noted, calls follow the shape of the dose curve; as a rule, active = well fitted curve in the direction sought with a large enough effect; inconclusive = small, poorly fitted or top-dose-only effect, or another doubt; inactive = no such curve, though single readings can be large; an effect the other way counts as inactive or inconclusive. Potency is read from the fitted curve at half-maximal effect.
SMILES,NS1 function inh,MARV entry inh,Lassa entry inh,Cruzain inh noDet,SARS PLP yeast,2A StopGo,Cruzain inh Det,RE007 growth inh
CCC(=O)Nc1cccc(C(=O)c2ccccc2)c1,-36%,18%,-14%,7%,-13%,.,3.1%,-7%
O=C1CC(C(F)(F)C(F)(F)C(F)(F)C(F)F)=Nc2ccccc2N1,2%,13%,1%,3%,-1%,.,-1.4%,-5%
COc1ccc(CNc2nc3c(S(=O)(=O)c4ccccc4)nnn3c3ccc(Cl)cc23)cc1,.,-9%[46.1 µM],.,-4%,.,-1%,-2.2%,.
O=C(Oc1ccc(Cl)c2cccnc12)c1ccco1,-5%,-18%,-4%,-6%,-21%,-24%,-1.0%,?
CCCCOC(=O)c1ccc(S(N)(=O)=O)o1,8%,?,?,-10%,-21%,14%,-1.1%,-2%
CCC(C)C(NC(=O)C1CCC(C)CC1)C(=O)NCc1ccco1 (stereo not drawn),17%,-11%[46.1 µM],-10%[46.1 µM],.,-3%,-10%,.,1%
Cc1cc(C(F)(F)F)nn1CC(=O)Nc1cccnc1,19%,4%,0%,-6%,1%,-10%,0.9%,1%
CCOc1ccccc1CN1CCNC(=O)C1CC(=O)NC1CCCCCCC1 (stereo not drawn),.,-26%,15%,.,.,11%,.,-17%
Cc1ccc(SCc2[nH]nc3c2C2(C(=O)Nc4ccc(F)cc42)C(C#N)=C(N)O3)cc1 (stereo not drawn),10%,-66%,-25%,2%,-5%,-25%,0.5%,-2%
O=C(c1ccc(Cn2c(=S)[nH]c3ccccc3c2=O)cc1)N1CCN(c2ccccn2)CC1,4%,?,?,.,-1%,?,.,8%
COc1ccc([N+](=O)[O-])cc1NC(=O)Cc1c(Cl)cccc1Cl,6%,0%,10%,-8%,-4%,6%,-0.5%,-7%
COc1ccc(Cl)cc1NC(=O)c1cc(C)nn1-c1ccccc1,.,-3%[46.1 µM],-10%[46.1 µM],-7%,.,20%,-5.6%,.
CC(C)OCCCNC(=O)Cn1nc(-c2ccccc2)ccc1=O,?,21%,-8%,4%,2%,.,1.0%,2%
COc1ccc(N=CC2CCCCC2=O)c([N+](=O)[O-])c1 (stereo not drawn),.,1%,-1%,.,.,17%,.,?
CC(=O)Nc1cccc(NC(=S)Nc2ccc(F)c(Cl)c2)c1,-6%,-11%,-26%,.,-2%,8%,.,0%
N#Cc1ccc(CN2CCN(CC(=O)NCCc3ccc(Cl)cc3Cl)CC2)cc1,-57%,?,-26%[46.1 µM],.,-2%,-14%,.,-12%
COc1ccc(S(=O)(=O)N2CCOC23CCN(S(=O)(=O)c2ccc([N+](=O)[O-])cc2)CC3)cc1,.,?,4%,.,-3%,4%,.,1%
O=C(C[n+]1cc(-c2ccc(Cl)cc2)n2c1CCCCC2)c1ccccc1,-2%,-7%,-18%,.,-1%,1%,.,-2%
COc1cc(SC)ccc1C(=O)N1CCc2ccccc21,-5%,-14%,1%,.,0%,-14%,.,2%
CCN1C(=O)c2ccccc2Sc2ccc(C(=O)NCCCN(CC(C)C)CC(C)C)cc21,5%,?,?,10%,1%,-10%&-22%,-0.1%,-6%
O=C(Cc1coc2cc3c(cc12)CCC3)NC1CCCCCCC1,-4%,-14%,1%,-5%,2%,24%,-6.3%,-7%
COc1ccccc1-c1noc(-c2ccc(NC3CCCC3)c([N+](=O)[O-])c2)n1,.,-12%[46.1 µM],-11%[46.1 µM],?,.,51%[activator],-2.9%,.
CCSc1nnc(NC(=O)c2ccccc2)s1,-26%,?,?,5%,-47%,13%,-2.2%,-28%
Cc1nnc(SCC(=O)Nc2nccs2)n1N,.,8%[46.1 µM],10%,.,5%,-13%,.,0%
CC1CN(S(=O)(=O)c2cccc(C(=O)Nc3ccccc3N3CCOCC3)c2)CC(C)O1 (stereo not drawn),.,?,-30%,.,0%,-15%,.,-16%
CC(NC(=O)CN1CCOCC1)c1ccccc1 (stereo not drawn),16%,.,.,.,3%,1%,.,7%
Cc1cc(=O)n(-c2ccccc2)n1-c1ccccc1,-2%,?,5%,9%,3%,-15%,1.7%,12%
Cc1ccc(C)c(NC(=O)COC(=O)c2cc(=O)c3ccccc3o2)c1,.,14%[46.1 µM],10%,.,0%,16%,.,-26%
Cc1ccc(OS(=O)(=O)c2cn(C)c(=O)n(C)c2=O)cc1C,1%,-18%,5%,.,-1%,6%,.,33%
CCOc1ccc(CN2C(=O)c3ccccc3Sc3ccc(C(=O)NCc4ccc5c(c4)OCO5)cc32)cc1,.,?,-8%[46.1 µM],10µM*,.,-10%,-2.3%,.
Clc1cccc(Cl)c1CSc1nnc(/C=C/c2ccccc2)o1,3%,-22%[46.1 µM],-1%,12%,1%,-7%,1.7%,-7%
Cc1ccc(/C=C/C(=O)Nc2ccncc2)o1,-3%,?,8%,-17%,-16%,0%,-8.8%,-15%
O=C(CNC(=O)c1ccc2ccccc2c1)NCc1ccccc1F,-9%,0%[46.1 µM],-7%[46.1 µM],.,-2%,11%,.,1%
COCCCn1c(SCC(=O)Nc2ccc(C(C)=O)cc2)nc2ccccc2c1=O,-11%,16%,20%,?,4%,64%[activator],-3.5%,24%
O=C(COC(=O)c1ccc(-c2ccc([N+](=O)[O-])cc2)o1)NC(=O)NC12CC3CC(CC(C3)C1)C2,-6%,24%,-11%,25µM*,-4%,-11%,-5.0%,14%
O=[N+]([O-])c1ccccc1/C=N/N1CCN(c2ccccn2)CC1,-12%,?,?,7%,-10%,-19%,-6.1%,?
COc1cc(C(=O)Nc2ccc(NC(=O)C3CCCCC3)nc2)cc(OC)c1OC,11%,-2%[46.1 µM],.,.,14%,-9%,.,-4%
CCN(CC(=O)NC(C)C)C(=O)[C@@H](NC(=O)c1ccco1)C(C)C,.,?,?,.,0%,-2%,.,31%
Cc1cc(C)cc(NC(=O)CSc2cc(C(=O)c3nccn3C)c3ccccc3n2)c1,0%,-13%,-9%,23%,3%,?,0.7%,-2%
CCOP(=O)(OCC)C(NC(=O)c1ccc(C)cc1)C(Cl)(Cl)Cl (stereo not drawn),2%,?,-15%,1%,16%,-20%,4.7%,8%
CC1=[N+]([O-])C2(N)CCc3nonc3C2(O)C1 (stereo not drawn),?,1%,-2%,13%,5%,-1%,-1.7%,-7%
COc1cccc(N2CCN(C(=O)CCS(=O)(=O)c3ccc4c(c3)oc(=O)n4C)CC2)c1,12%,0%&0%[46.1 µM],-6%&26%[46.1 µM],0%,-5%,6%&-14%,-1.9%,3%
Cc1ccc(CN(C)C(=O)C2CCN(C(=O)Nc3ccccc3)CC2)o1,.,11%[46.1 µM],-3%,.,0%,-2%,.,3%
O=C(Nc1ccccc1Cl)C1CCN(c2nc3ccccc3[nH]2)CC1,.,.,-7%[46.1 µM],-9%,.,0%,1.6%,.
COc1ccccc1C(=O)OCCCN=C1NS(=O)(=O)c2ccccc21,2%,-8%[46.1 µM],4%,.,1%,13%,.,10%
COc1cc(Br)c(C2CC(=O)Nc3cc(OC)c(OC)c(OC)c32)cc1OC (stereo not drawn),.,-1%[46.1 µM],3%[46.1 µM],?,.,98%[activator],-2.8%,.
CC1CCN(c2oc(/C=C/c3ccc(F)cc3)nc2C#N)CC1,.,7%[46.1 µM],24%[46.1 µM],4%,.,31%[activator],0.6%,.
CCOc1ccc(NC(=O)C(Cc2ccccc2)NC(=O)C2CCCCC2)cc1 (stereo not drawn),8%,1%,-2%,?,-20%,8%,1.6%,0%
COc1ccc2oc(=N)c(C(=O)Nc3ccc(Cl)cc3)cc2c1,-5%,.,.,.,?,19%,.,-18%
COC(=O)c1ccc(-c2sc3nc(N4CCOCC4)c4c(c3c2N)CCCC4)o1,12%,?,?,?,-5%,-28%,2.6%,-1%
Cc1c(C(=O)OCc2ccccc2)nnn1-c1nonc1N,-4%,14%,1%,-7%,5%,33%[activator],7.1%,-13%
CCOc1cc(N2CCOCC2)c(OCC)cc1NC1=NCCCCC1,-11%,-19%,4%,-1%,1%,-22%,3.5%,-18%
O=C1Nc2ccc(Cl)cc2C12OCCCO2,0%,9%[46.1 µM],16%[46.1 µM],.,1%,6%,.,-2%
O=C(CSc1ccc(-c2ccncc2)nn1)N1CCN(c2ccccc2)CC1,.,5%[46.1 µM],.,.,-6%,?,.,3%
Cc1cc(C)n(S(=O)(=O)c2ccc(F)cc2)n1,-4%,.,.,.,0%,-10%,.,-6%
O=c1[nH]c(=O)n(C2CCCCCC2)c(O)c1C=NCc1ccc(F)cc1,-145%,-10%,?,1%,-2%,0%,-4.5%,23%
CCO/C=N/c1c(C#N)c(CC#N)nn1-c1ccccc1,1%,2%,-11%,2%,-6%,-14%,3.9%,-10%
CCOCCc1nn2c(=O)cc(COC(=O)c3ccc(NC(=O)c4cccs4)cc3)nc2s1,.,.,?,7%,.,-2%,-2.3%,.
Cc1ccc(Cl)cc1N1CCN(C(=O)C2CCN(S(=O)(=O)c3cn(C)cn3)CC2)CC1,.,.,-2%[46.1 µM],?,.,-8%,0.2%,.
Cc1ccc(NC(=O)CCNC(=O)c2ccc(Cl)cc2)cc1C,-4%,.,.,.,0%,-7%,.,-9%

# (list continues)
SMILES,NS1 function inh,MARV entry inh,Lassa entry inh,Cruzain inh noDet,SARS PLP yeast,2A StopGo,Cruzain inh Det,RE007 growth inh
COc1ccccc1CNC(=O)CCCc1ccccc1,2%,1%,2%,-2%,3%,-4%,-0.3%,5%
CCCCC(=O)Nc1cc(NC(=O)CC)ccc1Cl,-14%,-17%[46.1 µM],-2%,9%,7%,-6%,-0.1%,33%
CC1=C(C(=O)Nc2ccccc2)C(c2cccs2)NC(=O)N1 (stereo not drawn),5%,-11%,-8%,.,-1%,-4%,.,6%
CCOC(=O)c1c(C)nn(-c2ccc(NC(=O)CSCC(=O)O)cc2)c1C,-4%,1%[46.1 µM],2%,.,0%,9%,.,24%
